High-throughput results deposited in PubChem BioAssay by National Center for Advancing Translational Sciences (NCATS).
HPGD block – qHTS Assay for Inhibitors of HPGD (15-Hydroxyprostaglandin Dehydrogenase). purified HPGD, NADH fluorescence kinetic, PGE2 substrate. Potency, µM, for the others: at the highest dose activity change, negative = inhibition, actives largely listed as inhibitors. actives 4.3% (n = 150,000). 15-hydroxyprostaglandin dehydrogenase [NAD(+)] (Homo sapiens), P15428; active = well fitted inhibition curve with a large enough effect (not every such curve was filed as active); inconclusive = small, poorly fitted or top-dose-only effect, or another doubt; inactive = no such curve, though single readings can be large or run the other way;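 also: top concentration of the series not given in the record; plate controls included wells without enzyme; inactives centre near -10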
Target sequence (P15428 whole entry, looked up): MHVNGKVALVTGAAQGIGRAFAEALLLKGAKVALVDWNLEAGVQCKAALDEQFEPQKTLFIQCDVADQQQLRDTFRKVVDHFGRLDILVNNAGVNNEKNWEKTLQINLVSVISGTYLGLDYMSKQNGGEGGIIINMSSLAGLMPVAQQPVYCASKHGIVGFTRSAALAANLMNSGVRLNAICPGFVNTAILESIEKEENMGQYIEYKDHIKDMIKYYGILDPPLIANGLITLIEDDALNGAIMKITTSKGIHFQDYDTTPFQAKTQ
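20 nM HPGD preincubated 15 min at room temperature with compound in 50 mM Tris-HCl pH 8, 0.01% Tween 20. Started with 1 mM NAD+ and 30 uM prostaglandin E2; NADH fluorescence (360/450 nm) read 5 times over 30-s intervals, last minus first.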
An asterisk follows results filed as active; ? = inconclusive; & = joins results of further samples. % is scaled to controls: 0 for no effect and ±100 for the full control effect; potency is read from the fitted curve at half-maximal effect.

Structure	HPGD block
CCN(CC)c1ccc(C(=O)N/N=C(\C)c2cccc(OC)c2)cc1	-8%
Cc1ccc(N(C(=O)CCl)C(C(=O)NC2CCCCC2)c2cccnc2)cc1C (stereo not drawn)	-10%
CCOc1ncccc1C(=O)OCC(=O)N1CCN(S(=O)(=O)c2ccc(Cl)cc2)CC1	?
COc1ccccc1NC(=O)c1csc2c1CCCC2	-14%
C=C1C(O)C[C@H]2C(=C)CCC3[C@H](OC(=O)[C@]3(O)CO)[C@@H]12 (stereo partly drawn)	2%
O=CN1CCN(C(=O)c2ccccc2Cl)CC1	-8%
O=C(NCc1cc(C(F)(F)F)cc(C(F)(F)F)c1)C1CC(c2cccc([N+](=O)[O-])c2)=NO1 (stereo not drawn)	-9%
COC(=O)COc1ccc(=O)n(-c2ccccc2)n1	-6%
Cc1ccc(CNC(=O)CN(Cc2cccs2)C(=O)C2(C)CC(=O)N=C3C=CC=CN32)cc1 (stereo not drawn)	?
Cn1nnnc1SCCNCc1cccc2ccccc12	-16%
CCOC(=O)C1CCCc2c1[nH]c1c(C(=O)O)cccc21 (stereo not drawn)	-10%
CCN(CC(=O)NCc1cccs1)C(=O)c1cc(S(=O)(=O)N2CCOCC2)ccc1C	-1%
CCOC(=O)C1CN(S(=O)(=O)c2ccc(C)cc2)CCN1S(=O)(=O)c1ccc(C)cc1 (stereo not drawn)	-5%
O=C1COc2ccccc2N1Cc1ccccc1Cl	-13%
OB(O)c1ccc(B(O)O)cc1	-9%
CCCOc1ccc(N2CC(C(=O)Nc3ccccn3)CC2=O)cc1 (stereo not drawn)	-12%
COc1cc(S(=O)(=O)Nc2ccc(C)cc2)ccc1NC(=O)c1ccncc1	-11%
CCOC(=O)c1nnc(-c2ccccc2)nc1Sc1c(Cl)cccc1Cl	-5%
Cc1cc(C)nc(NC(=NCCc2c[nH]c3ccccc23)NC(=O)Nc2ccc(Cl)cc2)n1	-1%
Cc1c2c(nc3ccccc13)-c1cccc(=O)n1C2	?
CC(=O)Nc1ccc(SCC(=O)c2cc(C)n(-c3ccccc3F)c2C)cc1	-13%
CC1CCCCC1NC(=O)COC(=O)c1ccc(N(C)C)cc1 (stereo not drawn)	?
Cc1noc(C)c1C(=O)N1CCC2(CCCN(C(=O)NC(C)C)C2)CC1	-8%
COC(=O)[C@@]1(Cc2ccc(OC)cc2)[C@H]2c3cc(C(=O)N(C)C)n(Cc4cccc5ccccc45)c3C[C@H]2CN1C(=O)c1ccccc1	-8%
O=C(N=c1nc2ccccn2s1)c1ccccc1	-29%
CCOC(=O)c1ccc(N2C(=O)CC(Sc3nc(O)c(CC)c(=O)[nH]3)C2=O)cc1 (stereo not drawn)	-11%
CCOC(=O)C1=C(C)N(c2nonc2NC(C)=O)C(N)=C(C#N)C1c1ccccc1F (stereo not drawn)	-4%
c1ccc(-c2nnc(CN3CCCc4ccccc43)o2)cc1	?
Cc1ccc(-n2c(CNc3ccc(F)cc3)nnc2SCC(=O)N2CCCC2)cc1	-16%
CC(=O)N1CC[C@@H]2CC(=O)CC[C@@H]21	-3%
Oc1ccc(Cl)cc1CNCC1CCCO1 (stereo not drawn)	2%
CCOC(=O)c1cnc(Nc2nc3ccccc3o2)nc1CSC(=S)N1CCCCC1	-4%
O=NO	-12%&-8%
COCCNC(=O)c1ccccc1NS(=O)(=O)c1ccc(C)c([N+](=O)[O-])c1	2%
Cc1ccc(-c2nn(-c3ccccc3)cc2C2SCC(=O)N2Cc2ccccc2)o1 (stereo not drawn)	?
Cc1cnc(NC(=O)CSc2nnc(-c3ccc(Cl)cc3Cl)n2N)s1	25µM*
COc1ccccc1OCc1nc2ccccc2s1	-17%
CC1CCN(C(=O)CCc2ccc(Oc3cc([N+](=O)[O-])cc([N+](=O)[O-])c3)cc2)CC1	1µM*
NC(=O)c1cnn(Cc2ccc(Cl)cc2)c1N	-1%
O=C(NC1CCCCC1)C(c1cccs1)N(C(=O)c1ccccn1)c1ccccc1 (stereo not drawn)	-8%
NC(=O)C1CC=CCC1C(=O)OCC(Cl)=C(Cl)Cl (stereo not drawn)	-10%
CC(=O)NCCSCCNC(C)=O	-3%
O=C(O)CNC(=O)c1ccc([N+](=O)[O-])cc1	-9%
C/C(=N\n1c(C)cc(C)c(C#N)c1=O)c1cccs1	-4%
Cc1cc(Cl)ccc1NC(=S)N1CCN(Cc2ccc3c(c2)OCO3)CC1	-28%
Cc1ccc(NS(=O)(=O)c2cccc(C(=O)OCC(=O)NCc3ccco3)c2)cc1	-9%
CC(C)CC(NC(=O)c1ccc(Cl)cc1Cl)C(=O)O (stereo not drawn)	-16%
CCOC(=O)C1CCCN(C(=O)c2cn(CC)c3ccc(S(=O)(=O)N(C)C)cc3c2=O)C1 (stereo not drawn)	-17%
C/C(=N\NS(=O)(=O)c1ccc(C)cc1)c1ccc(C)s1	-2%
O=C(O)/C=C/c1coc2ccccc2c1=O	-2%

Taken from above.
In HPGD block, Oc1ccc(Cl)cc1CNCC1CCCO1 (stereo not drawn) is entered as 2%
In HPGD block, NC(=O)c1cnn(Cc2ccc(Cl)cc2)c1N is entered as -1%
In HPGD block, CC(=O)NCCSCCNC(C)=O is entered as -3%
In HPGD block, NC(=O)C1CC=CCC1C(=O)OCC(Cl)=C(Cl)Cl (stereo not drawn) is entered as -10%
In HPGD block, CCOC(=O)C1CCCN(C(=O)c2cn(CC)c3ccc(S(=O)(=O)N(C)C)cc3c2=O)C1 (stereo not drawn) is entered as -17%
In HPGD block, C/C(=N\NS(=O)(=O)c1ccc(C)cc1)c1ccc(C)s1 is entered as -2%
In HPGD block, COc1ccccc1OCc1nc2ccccc2s1 is entered as -17%

Of the compounds above, 2 contain a furan ring, fused or not:
Structure	HPGD block
Cc1ccc(-c2nn(-c3ccccc3)cc2C2SCC(=O)N2Cc2ccccc2)o1 (stereo not drawn)	?
Cc1ccc(NS(=O)(=O)c2cccc(C(=O)OCC(=O)NCc3ccco3)c2)cc1	-9%

Later entries:
Structure	HPGD block
CC1(C)CC(=O)C2=C(C1)N(c1ccc(F)cc1)C(N)=C(C#N)C2c1cccs1 (stereo not drawn)	-5%
C/C(=N\NC(=O)c1ccc(CSc2nncn2C)cc1)c1ccc2ccccc2c1	-7%
COc1cc(C(=O)NCCOc2ccccc2C)c(Br)c(OC)c1OC	-16%
COc1ccc(-c2cn(-c3ccc(Br)cc3)c3[n+]2CCS3)cc1	-8%
Clc1ccc(-c2nnc(SCc3nc(-c4ccccc4)no3)o2)cc1	-13%
CCSc1nnc(NC(=O)c2nn(C(C)C)c(=O)c3ccccc23)s1	-16%
N#Cc1cc2c(nc1SCc1cccnc1)CCC2	-20%
CN(C)C(=O)C1CCN(Cc2c[nH]c3ccccc23)CC1	0%
CCn1cc(C(=O)NCc2ccccc2)c(=O)c2cc(F)c(N3CCN(C(=O)c4ccco4)CC3)cc21	?
S=C(Nc1cccc(Br)c1)c1ccccc1	13µM*
Cc1cc(C)n(-c2nc(Nc3ccccc3)nc(-n3nc(C)cc3C)n2)n1	-8%
CNC(=O)c1cc2ccccc2o1	0%
COC(=O)c1ccc(CN2C(=O)NC3(CCCCC3C)C2=O)o1 (stereo not drawn)	-3%
CSc1oc(-c2ccc(F)cc2)nc1S(=O)(=O)c1ccc(F)cc1	-26%
COc1ccc(OCCC(=O)OCC(=O)Nc2cccc(Br)c2)cc1	-16%
C=CCOC(=O)/C(=C\C=C\c1ccccc1)NC(=O)c1ccccc1	-14%
O=C(/C=C/c1cc2c(cc1Br)OCO2)NCc1ccc(F)cc1	-7%
O=C(CN(Cc1cccs1)C(=O)CN1C(=O)COc2ccccc21)NCc1ccco1	-1%
COc1ccc(-n2c(SCC(=O)Nc3ccc4c(c3)OCO4)nnc2C(C)N2CCCCC2)cc1 (stereo not drawn)	3%
O=C1C2ON(c3ccccc3)C(c3ccccn3)C2C(=O)N1c1ccc(Br)cc1 (stereo not drawn)	-7%
CCC(=O)N(Cc1cccs1)C1CCOC(C)(C)C1 (stereo not drawn)	-9%
CCOc1ccc(C(C)(N)C(=O)O)cc1 (stereo not drawn)	2%
Cn1c(SCC(=O)c2ccccc2)nc2cccnc21	-24%
Cc1cc(C)c(NC(=O)CSc2nnc(Cc3cccn3C)n2-c2ccc(F)cc2)c(C)c1	-4%
c1ccc(OCc2nn3c(-c4ccco4)nnc3s2)cc1	-25%
O=C(Nc1cc(C(F)(F)F)ccc1N1CCOCC1)c1n[nH]c(=O)c2ccccc12	-8%
CCCCNCCOCCSc1ccc(Cl)cc1	-7%
CCOC(=O)c1c(Cl)c(C)nn1-c1nc(OC)cc(OC)n1	-4%
O=C(COc1ccc([N+](=O)[O-])cc1)NCc1ccccc1	-8%
O=C(NCCC1=CCCCC1)c1cc2c(s1)CS(=O)(=O)C2	-15%
CCCCNC(=O)Cn1c(-c2ccc(OC)cc2)noc1=O	-3%
COc1ccc(C(O)c2nccn2Cc2ccccc2)cc1OC (stereo not drawn)	-6%
Cc1ccc2c(c1)N(CC(=O)NCc1cccnc1)C(=O)CO2	-8%
CC(C)c1nnc(NC(=O)CCC(=O)NC2CCCc3ccccc32)s1 (stereo not drawn)	-4%
C=CCNC(=S)NNC(=O)c1ccc(Br)o1	-15%
Cc1ccc(-n2c(SCC(=O)N3CCOCC3)nnc2-c2cccnc2)cc1C	5%
Cn1c(=O)c2[nH]c(-c3ccccc3)nc2n(C)c1=O	-14%&-5%
C=CCNC(=S)NNC(=O)COc1ccc(Cl)cc1Cl	-27%
CCCCn1c(SCC(=O)c2ccc3c(c2)OCCO3)nnc1-c1ccoc1C	-10%
O=C(Nc1ccc(F)cc1)c1cccnc1N1CCCCC1	-13%
Cc1ccc(-c2n[nH]c(=S)n2/N=C/c2cccs2)cc1	13µM*
O=C(NC(=S)N1CCN(c2ccc(F)cc2)CC1)C12CC3CC(CC(C3)C1)C2	-8%
Cc1ccccc1Cn1cnc2c([N+](=O)[O-])c(C)c(C)cc21	-11%
Cn1c(=O)cc(SCC(=O)NCCC2=CCCCC2)c2ccc(Cl)cc21	?
Cc1cc(-c2nnc(SCC(=O)c3ccc(Cl)cc3)o2)no1	-17%
CCCCn1nnc(NC(=O)c2ccc(-c3cccc(Cl)c3)o2)n1	?
Cc1cc(=O)oc2c(CN3CCC(C)CC3)c(O)c(Cl)cc12	?
COc1ncc2nc(-c3cccs3)c(=O)n(-c3ccccc3)c2n1	?
CCOC(=O)CSc1nc(N)c(C#N)c(CC(C)C)c1C#N	-18%
CN1C(=O)/C(=C/c2ccccc2OCc2cccc(F)c2)N(C)C1=S	-18%

(listing goes on)
Structure	HPGD block
O=C(NC1CCCCC1)C(c1ccc(F)cc1)N(Cc1cccs1)C(=O)CN1C(=O)c2ccccc2S1(=O)=O (stereo not drawn)	-5%
CCC(=O)OCc1c(C(F)(F)F)nn(C)c1Sc1ccc(Cl)cc1	-11%
O=C(O)c1cccc(COc2ccc(CO)cc2Cl)c1	-22%
N#CC(c1nc2ccccc2nc1N1CCCC1)S(=O)(=O)c1cccs1 (stereo not drawn)	?
Cc1ccccc1C(NC(N)=O)c1ccccc1 (stereo not drawn)	-4%
COc1ccc(CNc2oc(COc3ccccc3Cl)nc2C#N)cc1	-25%
CCCOc1cc(N)ccc1C(=O)OCCN(CC)CC	-7%
CCCc1c(OCC(O)COc2ccc3c(=O)cc(C(=O)O)oc3c2CCC)ccc(C(C)=O)c1O (stereo not drawn)	18µM*
O=C(OCCN1CCOCC1)C1(c2ccccc2)CCCCC1	-4%&3%
Cc1ccc(NC(=O)CSc2nnc(-c3ccccc3C)o2)cc1C	-6%
CCOc1ccccc1C1C(C(N)=O)=C(C)Nc2nc(-c3cccc(C)c3)nn21 (stereo not drawn)	-7%
CCCn1c(SCC(=O)N2CCCc3ccccc32)nnc1-c1ccccn1	-9%
O=C1NC(c2ccccc2Cl)Nc2ccccc21 (stereo not drawn)	?
C/C(=N\NC(=O)c1ccccc1[N+](=O)[O-])c1c(O)cc(C)oc1=O	-11%
C/C(=N/OCO/N=C(\C)c1ccccc1F)c1ccccc1F	-14%
O=C(Nc1ncccc1Cl)C(Sc1ccccc1)c1ccccc1 (stereo not drawn)	-18%
CCOC(=O)CSc1nnc(C)n1N	-11%
O=S(=O)(c1ccc2c(c1)OCCCO2)N1CCNCC1	-9%
Cc1c(NC(=O)CSc2nc3ccccc3s2)c(=O)n(-c2ccccc2)n1C	-20%
CC1=NCCN1S(=O)(=O)c1ccc(Br)c(C)c1	-20%
CCC(=O)Nc1nc2c(OC)ccc(OC)c2s1	-14%
CC1CCCCC1NC(=O)c1ccc2c(c1)[nH]c(=O)n2C1CCCC1 (stereo not drawn)	-10%
O=C(CSc1nnc(CNc2ccccc2)o1)c1ccc2c(c1)OCCO2	-10%
CCOC(=O)c1cc(-c2ccc(N)cc2)sc1N	-8%
Cc1ccc2nc(/C(C#N)=C/c3cn[nH]c3-c3ccc(F)cc3)[nH]c2c1	-2%
COc1ccc(C(=O)NN2C(=O)C3C4C=CC(O4)C3C2=O)cc1 (stereo not drawn)	4%
O=C(c1ccco1)N1CCN(C(c2ccc(Cl)cc2)c2nnnn2Cc2ccccc2)CC1 (stereo not drawn)	-2%
CC(NS(C)(=O)=O)C(c1cccs1)N1CCN(c2ccccc2)CC1 (stereo not drawn)	0%
Cc1ccc(NC(=O)CSc2ncccc2C(=O)Oc2cccc([N+](=O)[O-])c2)cc1Cl	-6%

An excerpt, so the mix of outcomes need not match the whole.
